Assay outcomes: PubChem, National Center for Advancing Translational Sciences (NCATS)
HTT prom inh = inhibits huntingtin promoter activity; AID 1508623; hit rate 0.93% among 48,000; Potency, µM (top dose mostly 57.5 µM), for inactives: top-dose activity change, negative = inhibition, actives largely listed as inhibitors; HEK293 HTT promoter firefly luciferase reporter (activity 0% = vehicle and -100% = no light), 24 h; active = well fitted inhibition curve with a large enough effect; inconclusive = small, poorly fitted or top-dose-only effect; inactive = no such curve, though single readings can be large or run the other way; note: nearly all actives have a fitted effect of over 50% in size
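HEK293 cells carrying firefly luciferase reporters were seeded at 2,500 per well in Opti-MEM and cultured for 24 h. They were then treated with compounds at up to 57.5 uM final for 24 h at 37 degrees C before Dual-Glo luminescence readout.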
PMP22 txn = PMP22 gene transcription modulation; Potency, µM (top dose mostly 57.5 µM), without a hit: at the top dose activity change, negative = inhibition, actives largely listed as inhibitors; hit rate 2% among 43,000; S16 Pmp22-F2sN Schwann cells (luciferase reporters placed in the Pmp22 gene), FLuc/NLuc coincidence luminescence, 24 h; AID 1508649; active = clear falling dose curves in both reporters; inconclusive = both reporters move, but less clearly or upward; inactive = either reporter flat; the % is the NLuc reporter signal; note: % is set by controls: 0 for no effect and ±100 for the full control effect; some results filed as inactive show a strong effect at the top dose
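S16(c9) Schwann cells with FLuc/NLuc coincidence reporter in the Pmp22 3' UTR; compounds pin-transferred, 24 h at 37C. Dual-luciferase read: FLuc first, then NLuc after Stop&Glo, each 10 min at room temperature.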
An asterisk follows results filed as active; ? = inconclusive; nt = not tested or not shown; [ ] = dose if it differs, or a comment. Potency is the fitted concentration of half-maximal effect. Not all compounds are listed, so the mix of outcomes need not match the whole.

Below each SMILES – HTT prom inh	PMP22 txn
CCOC(=O)c1c(C)oc2ncnc(N3CCN(c4ccc(C)cc4C)CC3)c12
  -7%	-12%
CCOc1ccc2nc(N3CCCC(C(=O)NCCc4ccc(OCC)c(OCC)c4)C3)sc2c1 (configuration not stated)
  16%	-68%
Cc1cc(OCC(=O)Nc2cc(-c3nc4ccccc4[nH]3)ccc2C)ccc1Cl
  ?	-53%
CCc1cccc(NC(=O)C(NS(=O)(=O)c2ccc3nc(C)sc3c2)C(C)C)c1 (configuration not stated)
  -7%	-8%
COc1ccc(CCNC(=O)CSCc2nc(-c3ccc(OC)c(OC)c3)oc2C)cc1OC
  -27%	46%
CCCc1nc2ccccc2n1CC(O)COc1ccc(C(=O)OC)cc1 (configuration not stated)
  -10%	16%
CCOC(=O)Cn1c(=O)n(CC2CCCO2)c2nc(-c3ccc(CC)cc3)nc(C(N)=O)c21 (configuration not stated)
  -11%	?
O=C(Nc1ccccc1Cl)C1CCN(c2nc3ccccc3nc2C(F)(F)F)CC1
  -27%	-9%
CCOc1ccc(-c2oc3ccccc3c(=O)c2O)cc1OCC
  25%	?
CN(C)c1ccc(CNC(=O)Cn2c(-c3cccs3)cc3cc(Cl)ccc32)cc1
  -30%	52%
COc1cc(NC(=O)c2cccc3c2C(=O)N(C2CCCCC2)C3)cc(OC)c1
  10%	-19%
CCOc1ccc(NS(=O)(=O)c2ccc3[nH]cc(C(=O)NCc4ccco4)c(=O)c3c2)cc1
  -8%	-21%
Cc1ccc(C)c(NC(=O)CN2CCSc3ccc(S(=O)(=O)N4CCCC4)cc32)c1
  -33%	?
Cc1c(Cl)cccc1NC(=O)C(=O)NCCc1csc(-c2ccc(C(F)(F)F)cc2)n1
  -4%	-14%
CCOC(=O)C1CCCN(c2cc(C)nc3c(-c4ccccc4OC)c(C)nn23)C1 (configuration not stated)
  -40%	-10%
COC(=O)c1cccc(Nc2c(-c3ccc(O)cc3)nc3nc[nH]n23)c1
  1%	-39%
O=C(Cn1cc(SCc2ccccc2Cl)c2ccccc21)N1CCCCCC1
  -17%	?
Cc1ccc(C)c(NC(=O)CCNS(=O)(=O)c2ccc3c(c2)CCCC(=O)N3)c1
  -31%	-27%
COC(=O)CNC(=O)C1CCN(S(=O)(=O)c2cccc3nsnc23)CC1
  -5%	-10%
COCCCNC(=O)CSc1nc2nc(C)c(Cc3ccccc3Cl)c(C)n2n1
  -20%	-19%
CCOC(=O)c1ccc(NC(=O)CC(C)n2nc(C)cc2C)cc1 (configuration not stated)
  5%	12%
CC(C(=O)NCc1ccccc1Cl)n1ccc2cc(S(=O)(=O)N3CCCCC3)ccc21 (configuration not stated)
  ?	?
O=C(Cn1cc(S(=O)(=O)Cc2ccc(F)cc2)c2ccccc21)NCCc1ccccc1
  ?	?
COc1ccccc1CNC(=O)CN1C(=O)CCCc2ccccc21
  18%	2%
O=C(CSc1nc2c([nH]c3ccccc32)c(=O)n1-c1ccc(F)cc1)NCc1ccccc1
  -24%	-14%
Cc1ccc(C)c(S(=O)(=O)NCC(c2ccco2)S(=O)(=O)c2ccc(F)cc2)c1 (configuration not stated)
  ?	-5%
CCC(=O)Nc1ccccc1C(=O)OCc1cc(=O)n2cc(C)sc2n1
  -21%	?
COc1ccc(OC)c(NC(=O)N2CCN(Cc3nc4ccc(C)cc4o3)CC2)c1
  -17%	12%
COc1ccc(CCNC(=O)c2cnc3sc(N4CCCC4)nn3c2=O)cc1OC
  -16%	?
O=c1cc2nc(-c3ccccc3F)nc(SCc3ccc(Br)cc3)n2[nH]1
  -10%	?
Cc1noc(C)c1S(=O)(=O)N1CCC(C(=O)N2CCN(c3ccccc3)CC2)CC1
  -26%	-17%
COc1ccc(C(C)=O)cc1CSc1nc(NCc2ccc(Cl)cc2)c2ccccc2n1
  ?	-13%
CCc1cccc(CC)c1N(COC)C(=O)Cn1c(CC)nc2ccccc21
  19%	7%
CCOC(=O)c1c(NC(=O)c2ccc(S(=O)(=O)N(C)C3CCCCC3)cc2)sc2c1CCN(C(C)C)C2
  ?	?
COc1ccc(OC)c(NC(=O)N2c3ccccc3Sc3ccccc32)c1
  -36%	?
CCCOc1ccc(-c2nc3ccccc3c(=O)o2)cc1
  66%[activator]	-2%
CCn1cc(C(=O)N2CCN(c3ccccc3F)CC2)c(=O)c2cc(S(=O)(=O)N(C)C3CCCCC3)ccc21
  -4%	-24%
CN(C)CCn1nnnc1SCC1=C(C(=O)O)N2C(=O)[C@@H](NC(=O)Cc3csc(N)n3)[C@H]2SC1
  3%	nt
Clc1cccc(-n2ncc3c(NCCCn4ccnc4)ncnc32)c1
  31%[activator]	?
CCOc1ccccc1CNC(=O)c1cc(-c2ccc(OC)cc2)nc2ccc(C(C)C)cc12
  -7%	?
COc1ccc(NS(=O)(=O)c2cc(-c3onc(C)c3C)ccc2C)c(OC)c1
  ?	?
CCOC(=O)c1ccc2c(c1)N(Cc1ccc(F)cc1Cl)C(=O)c1ccccc1S2(=O)=O
  -11%	-23%
COc1ccc(-c2cn3nc(SCC(=O)Nc4ccccc4F)ccc3n2)cc1
  4µM*	6%
COc1ccc(C(=O)Nc2nnc(S(=O)(=O)N(CC(C)C)c3ccc(C)cc3)s2)cc1OC
  -1%	-25%
CCOC(=O)CCn1cnc2onc(-c3cc(OC)ccc3Cl)c2c1=O
  -24%	-11%
CCS(=O)(=O)N1CCc2cc(C(=O)NCc3ccc(OC)cc3)ccc21
  -3%	-12%
COc1cccc(-c2nc(-c3ccc(-c4ccccc4)nc3OC)no2)c1
  17%	5%
COc1cc(OC)c(Nc2cc(C)nc3ncnn23)cc1Cl
  -3%	?
CCc1nn2c(-c3ccccc3OC)ccnc2c1-c1ccc(F)cc1
  ?	-7%
Clc1ccccc1CN1CCc2nc(N3CCN(c4ncccn4)CC3)ncc2C1
  ?	-17%
COc1ccc(-c2cn3nc(N4CCC(C(=O)NCc5ccc(F)cc5)CC4)sc3n2)cc1
  20%	-1%
Cc1ccc(NC(=O)/C=C/c2ccccc2)c(Br)c1
  60%[activator]	-17%
CC(=O)c1cc(-c2ccccc2)n(CCC(=O)NCc2ccc(C)cc2)c1C
  -28%	-2%
CCCCn1c(=NC(=O)C(C)(C)Oc2ccc(Cl)cc2)c(C(=O)OCC)cc2c(=O)n3ccccc3nc21
  -9%	-26%
CCCc1nn2c(=O)cc(COC(=O)C3CCCCC3)nc2s1
  -16%	-19%
Cn1c(SCC(=O)Nc2ccccc2F)nc2c([nH]c3ccccc32)c1=O
  -10%	?
COc1ccc(CN2CCc3c(c(=O)n4ncc(C(=O)N5CCN(c6ccc(F)cc6)CC5)c4n3C)C2)cc1
  13µM*	?
COc1cc(NC(=O)c2nc3cc(C)c(C)cc3n(C)c2=O)cc(OC)c1OC
  0%	1%
COc1ccc(CCNC(=O)C(=O)NCC(c2cccs2)S(=O)(=O)c2cccs2)cc1 (configuration not stated)
  ?	-22%
CCc1cccc(C)c1Nc1c(-c2ccccc2)nc2sccn12
  ?	?

Structures from the list above that have a furan ring, fused or not (3):
Below each SMILES – HTT prom inh	PMP22 txn
CCOC(=O)c1c(C)oc2ncnc(N3CCN(c4ccc(C)cc4C)CC3)c12
  -7%	-12%
CCOc1ccc(NS(=O)(=O)c2ccc3[nH]cc(C(=O)NCc4ccco4)c(=O)c3c2)cc1
  -8%	-21%
Cc1ccc(C)c(S(=O)(=O)NCC(c2ccco2)S(=O)(=O)c2ccc(F)cc2)c1 (configuration not stated)
  ?	-5%

(cont.)
Below each SMILES – HTT prom inh	PMP22 txn
CCOc1ccc2c(c1)c(=O)c(S(=O)(=O)c1ccc(CC)cc1)cn2Cc1cccc(Cl)c1
  -13%	12%
Nc1ccc2oc(-c3ccccc3Br)nc2c1
  -17%	?
CCOc1ccc(OC(=O)c2c(-c3ccccc3Cl)noc2C)cc1
  ?	?
Cc1ccc(C)c(N2CCN(C(=O)CN3CCSc4ccc(S(=O)(=O)N(C)C)cc43)CC2)c1
  -29%	?
COc1ccc2c(Sc3ccccc3)c(C(=O)NCc3cc(Br)ccc3OC)[nH]c2c1
  -20%	?
Cc1ccc(CNc2nc3nc(C)c(Cl)c(C)n3n2)cc1
  75%[activator]	-12%
COc1ccc(OCCSc2nc3ccccc3n2CC(=O)N2CCOCC2)cc1
  -15%	-6%
CC(=O)Nc1ccccc1-c1nc2ccccc2n(C(C)C(=O)Nc2cc(Cl)ccc2C)c1=O (configuration not stated)
  -9%	0%
CCOC(=O)c1sc(NC(=O)c2nc(SCC)ncc2Cl)c(C(=O)OCC)c1C
  1%	-34%
O=C(CSc1nccn1-c1ccc(F)cc1)Nc1ccc(OC(F)(F)F)cc1
  ?	?
Cc1ccc(F)cc1NC(=O)CSc1nc(-c2cccs2)cc(C(F)(F)F)n1
  -7%	14µM*
Cc1ccc(N(CC(C)C)S(=O)(=O)c2nnc(NC(=O)C(C)C)s2)cc1
  2%	17%
CN[C@@H]1[C@@H](O)[C@@H](O[C@@H]2[C@H](O)[C@H](O[C@H]3OC(CN)=CC[C@H]3N)[C@@H](N)C[C@H]2N)OCC1(C)O (some centres not stated)
  0%	nt
Cc1ccccc1-c1nc2cc(NC(=O)c3cccc(OCCC(C)C)c3)ccc2o1
  ?	?
COc1cc(OC)c(Nc2nc3ccccc3nc2-n2nc(C)cc2C)cc1Cl
  -28%	-4%

A section from the list above, for reference:
Below each SMILES – HTT prom inh	PMP22 txn
CCOc1ccc2c(c1)c(=O)c(S(=O)(=O)c1ccc(CC)cc1)cn2Cc1cccc(Cl)c1
  -13%	12%
Nc1ccc2oc(-c3ccccc3Br)nc2c1
  -17%	?
CCOc1ccc(OC(=O)c2c(-c3ccccc3Cl)noc2C)cc1
  ?	?

An excerpt from above in order of SMILES length, rising:
Below each SMILES – HTT prom inh	PMP22 txn
Cc1ccc(CNc2nc3nc(C)c(Cl)c(C)n3n2)cc1
  75%[activator]	-12%
CCOC(=O)c1sc(NC(=O)c2nc(SCC)ncc2Cl)c(C(=O)OCC)c1C
  1%	-34%
CC(=O)Nc1ccccc1-c1nc2ccccc2n(C(C)C(=O)Nc2cc(Cl)ccc2C)c1=O (configuration not stated)
  -9%	0%

New compounds follow
Below each SMILES – HTT prom inh	PMP22 txn
CC(C)c1cnc2c(c1SCC(=O)c1ccc(Cl)cc1)c(=O)n(C)c(=O)n2C
  ?	?
C[C@]1(Cn2ccnn2)[C@H](C(=O)O)N2C(=O)C[C@H]2S1(=O)=O
  7%	nt
COc1cccc(-c2nc(CS(=O)(=O)CC(=O)N3CCN(c4cc(C)ccc4C)CC3)c(C)o2)c1
  ?	?
Cc1cccc(C(=O)Nc2ccc(C(=O)OCc3cc(=O)n4nc(CC(C)C)sc4n3)cc2)c1
  14%	?
Oc1c(C(c2ccc(F)cc2)N2CCCC2)sc2nc(-c3ccco3)nn12 (configuration not stated)
  -9%	4%
Cc1nn(CC(=O)NCc2ccc(N(C)C)cc2)c(=O)c2c(C)n(-c3ccc(Cl)cc3)nc12
  ?	?
O=C(CSc1nccn1-c1ccc(F)cc1)Nc1cccc2ccccc12
  ?	0%
Cc1ccc(OCC(=O)Nc2ccc3nc(SCC(=O)N4CCOCC4)sc3c2)cc1
  -8%	-20%
CC(=O)c1ccc(NC(=O)CSc2nccn2Cc2ccco2)cc1
  36%[activator]	?
CCOC(=O)c1ccccc1NC(=O)Cn1c(=O)n(-c2cccc(C)c2)c(=O)c2c1c1cc(C)ccc1n2C
  3%	-9%
Cc1ccc(C)c(-c2csc(-c3c(N)c(C(=O)c4ccc5c(c4)OCO5)n4ccccc34)n2)c1
  -34%	-7%
CCOC(=O)c1ccc2ncc(C(=O)OCC)c(Nc3ccc(C)c(Br)c3)c2c1
  ?	?
COc1ccc(OC)c(NC(=O)CN2C(=O)CCc3cc(S(=O)(=O)N4CCCCC4)ccc32)c1
  -23%	?
CN1CCN(C(=O)c2ccc3c(c2)N(Cc2c(F)cccc2Cl)C(=O)c2ccccc2S3)CC1
  -32%	?
Cc1ccccc1OCCCCn1c(C2CC(=O)N(c3ccccc3Cl)C2)nc2ccccc21 (configuration not stated)
  ?	-24%
CCc1nc2c(cnn2-c2ccc(C)cc2)c(=O)n1-c1ccc(C)cc1
  ?	?
CCC(C)NC(=O)c1ccc(-n2c(-c3ccccc3)cc3c2CCCC3)cc1 (configuration not stated)
  9%	?
CCOC(=O)c1ccccc1NC(=O)c1nn(-c2ccc(OC)c(Cl)c2)c(=O)c2c1c1ccccc1n2C
  -2%	4%
COCCc1nn2c(=O)cc(COC(=O)c3ccc(OC)c(OC)c3)nc2s1
  -9%	-23%
CCC(Sc1nc(-c2ccccc2F)nc2c1Cc1c(CO)cnc(C)c1O2)C(=O)Nc1cc(C)ccc1C (configuration not stated)
  -17%	-20%
COc1ccc(-c2cn3nc(N4CCCC(C(=O)NCc5ccc(Cl)cc5)C4)sc3n2)cc1 (configuration not stated)
  37%[activator]	-146%
CCOc1ccc(CNC(=O)CCCn2c(=O)c3cccn3c3cccnc32)cc1
  4%	?
